Source: PubChem (National Center for Advancing Translational Sciences (NCATS))
SARS PLP yeast: blocks SARS-CoV papain-like protease in a yeast assay; S. cerevisiae expressing SARS-CoV PLpro, growth rescue; control for the full effect not named in the record; hit rate 0.19% among 330,000; Potency, µM (doses to about 32.9 µM), without a hit: at the highest dose activity, positive = growth rescue; AID 485353; active means well fitted rising curve with a large enough effect; inconclusive means small, poorly fitted or top-dose-only effect; inactive means no such curve, though single readings can be large or run the other way; note: 0% is about no effect; nearly all actives have a fitted effect of over 55% in size; growth read by luminescence after 48 h
Marburg entry inh: inhibitors of Marburg virus binding or cell entry. hit rate 1.8% among 300,000. Potency, µM (series often up to 37.8 µM), for the others: top-dose activity change, negative = inhibition, hits mostly inhibitors. Marburg virus pseudotyped entry inhibition, cell reporter; control for the full effect not named in the record; about a third of the inactives were read at about 46 µM; active = well fitted inhibition curve with a large enough effect; inconclusive = small, poorly fitted or top-dose-only effect, or effect the other way; inactive = flat fitted curve, though single readings scatter; tested in HEK293 cells; about a fifth of its hits are not listed in these tables; note: % is set by controls: 0 for no effect and ±100 for the full control effect; luciferase read-out
Lassa entry inh: Lassa virus entry inhibition; Lassa virus pseudotype entry inhibition, cell reporter; control for the full effect not named in the record; Potency, µM (titrated, usually from 37.9 µM), inactives show at the highest dose activity change, negative = inhibition, actives largely listed as inhibitors; hit rate 1.2% among 300,000; active means well fitted inhibition curve with a large enough effect; inconclusive means small, poorly fitted or top-dose-only effect, or effect the other way; inactive means flat fitted curve, though single readings scatter; tested in HEK293 cells; note: % is set by controls: 0 for no effect and ±100 for the full control effect; nearly all actives have a fitted effect of over 50% in size; luciferase read-out
StopGo reporter: FMDV 2A StopGo reporter, luciferase signal; human cells with a luciferase reporter of 2A StopGo recoding; control for the full effect not named in the record; Potency, µM (top dose mostly 57.9 µM), inactives show top-dose signal change, negative = less light; hit rate 1.2% among 410,000; AID 1159524; active = well fitted falling curve with a large enough effect; inconclusive = small, poorly fitted or top-dose-only effect; inactive = no such curve, though single readings can be large or run the other way; tested in HEK293T cells; note: % is set by controls: 0 for no effect and ±100 for the full control effect; nearly all actives have a fitted effect of over 45% in size; luciferase light after 4 h
RE007 growth inh: less growth of the S. pombe RE007 Vpr strain. S. pombe RE007 Vpr strain, BacTiter-Glo ATP luminescence, 24 h; control for the full effect not named in the record. Potency, µM (titrated, usually from 92.2 µM), for the others: top-dose activity change, negative = less growth. hit rate 0.21% among 360,000. AID 651644; active = well fitted falling curve with a large enough effect; inconclusive = small, poorly fitted or top-dose-only effect; inactive = no such curve, though single readings can be large or run the other way;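 note: % is set by controls: 0 for no effect and ±100 for the full control effect; nearly all actives have a fitted effect of over 50% in size; the assay follows cell death caused by Vpr and the record does not say whether a fall means rescue or toxicity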
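Fission yeast strain RE007, carrying one chromosomally integrated HIV-1 vpr copy, was seeded at OD 0.01 in PMG+AL medium with 23 nL pinned compound. After 24 h at 30 °C and 99% humidity, viability was read by BacTiter-Glo luminescence.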
NS1 inh: inhibitors of influenza NS1 protein function; S. cerevisiae slowed by influenza A NS1, growth recovery by OD600; Potency, µM (series often up to 46.1 µM), for the others: top-dose activity, positive = more growth; hit rate 0.4% among 270,000; active means well fitted rising curve with a large enough effect; inconclusive means small, poorly fitted or top-dose-only effect; inactive means no such curve, though single readings can be large or run the other way; note: nearly all actives have a fitted effect of over 50% in size
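S. cerevisiae expressing influenza A NS1, grown in glucose, washed, then diluted 1:100 into pH 6.0 -URA galactose medium with 23 nl compound. Growth recovery read as OD600; NS1-free strain serves as control.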
Cruzain inh noDet: cruzain (T. cruzi) inhibition without detergent. P25779. purified cruzain, Z-FR-AMC fluorescence, no detergent. Potency, µM, inactives show max response, negative = inhibition, actives largely listed as inhibitors. hit rate 2.3% among 200,000. AID 1476;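 note: plate controls were enzyme without inhibitor for no effect and buffer without enzyme for full effect; nearly all actives have a fitted effect of over 40% in size; top concentration of the series not given in the record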
Target sequence (P25779 123-467 limits assumed): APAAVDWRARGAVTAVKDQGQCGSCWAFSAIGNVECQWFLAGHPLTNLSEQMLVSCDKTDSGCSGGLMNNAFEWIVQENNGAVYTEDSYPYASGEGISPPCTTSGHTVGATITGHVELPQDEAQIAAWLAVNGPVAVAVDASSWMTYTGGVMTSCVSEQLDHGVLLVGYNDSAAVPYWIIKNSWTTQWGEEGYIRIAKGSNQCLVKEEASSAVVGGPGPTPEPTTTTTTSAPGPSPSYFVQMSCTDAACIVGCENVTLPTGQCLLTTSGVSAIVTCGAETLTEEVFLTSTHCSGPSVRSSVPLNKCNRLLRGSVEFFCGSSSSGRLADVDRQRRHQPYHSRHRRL
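Detergent-free condition (0.00005% Triton X-100) in acetate buffer pH 5.5 with DTT. 1.5 nM enzyme and compound were pre-mixed 15 min, then 2 uM Z-FR-AMC substrate added; reaction progress from fluorescence change between first and third reads (60 s).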
Cruzain Triton: inhibitors of Trypanosoma cruzi cruzain with detergent | P25779 | purified cruzain, Z-FR-AMC fluorescence, 0.01% Triton | Potency, µM, without a hit: max response, negative = inhibition, hits mostly inhibitors | hit rate 0.43% among 200,000;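 note: plate controls were neutral wells for no effect and buffer without enzyme for full effect; nearly all actives have a fitted effect of over 40% in size; top concentration of the series not given in the record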
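15 min RT preincubation of 1.5 nM cruzain with compound, then 2 uM Z-FR-AMC added; kinetic AMC fluorescence, 60 s delta. Triton X-100 0.01%, pH 5.5.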
The depositor's hits bear a star; ? = inconclusive; · = not tested or not shown; [ ] = dose if it differs, or a comment. Unless noted, calls come from the whole dose curve; as a rule, active = well fitted curve in the direction sought with a large enough effect; inconclusive = small, poorly fitted or top-dose-only effect, or another doubt; inactive = no such curve, though single readings can be large; an effect the other way counts as inactive or inconclusive. Potency is the fitted concentration of half-maximal effect. The order is random. Share with any hit: about 4.8%.

1. CCOC(=O)CNc1ncc([N+](=O)[O-])cc1C#N
2. O=C(CSc1nc(-c2ccccc2)cc(C(F)(F)F)n1)NCCN1CCOCC1
3. CCCSCCCNC(=O)CN1C(=O)COc2ccc(S(=O)(=O)N3CCC(C)CC3)cc21
4. CCCCCC(=O)N/N=C/c1ccccc1[N+](=O)[O-]
5. CSc1cccc(NC(=S)N2CCCN(Cc3ccccc3F)C2)c1
6. CNc1cc(Cl)nc(SC)n1
7. CN(C)CCN(C(=O)c1ccc(C(=O)c2ccccc2)cc1)c1nc2cc3c(cc2s1)OCO3
8. CC(=O)Nc1ccc(NC(=O)CC2CCCC2)cc1
9. CC1(NC(=S)NCCCCCCNC(=S)NC2(C)CCS(=O)(=O)C2)CCS(=O)(=O)C1 (stereo not given)
10. CCCc1cc(=O)[nH]c(SCC(=O)NC(=O)NC2CCCC2)n1

| Screen / compound no. | 1 | 2 | 3 | 4 | 5 | 6 | 7 | 8 | 9 | 10 |
| --- | --- | --- | --- | --- | --- | --- | --- | --- | --- | --- |
| SARS PLP yeast | 24% | 2% | · | 0% | 1% | 0% | -4% | -2% | 0% | 5% |
| Marburg entry inh | 9% | ? | -1%[46.1 µM] | -9%[46.1 µM] | ? | ? | ? | 26%[46.1 µM] | 12%[46.1 µM] | ? |
| Lassa entry inh | 9% | -1% | -6%[46.1 µM] | 12%[46.1 µM] | 3%[46.1 µM] | 20%[46.1 µM] | -5% | · | -13%[46.1 µM] | -8% |
| StopGo reporter | -4% | -3% | -13% | 14% | 2% | 6% | -10% | 56%[activator] | 31%[activator] | ? |
| RE007 growth inh | -2% | -14% | · | 63% | -10% | -14% | -22% | -8% | 14% | 10% |
| NS1 inh | 2% | 11% | · | · | · | 5% | -19% | 4% | -5% | · |
| Cruzain inh noDet | -11% | -1% | 7% | · | · | · | · | · | · | · |
| Cruzain Triton | -6.8% | -1.1% | 0.0% | · | · | · | · | · | · | · |

Next section, starting with the last 4 of the part before.
7. CN(C)CCN(C(=O)c1ccc(C(=O)c2ccccc2)cc1)c1nc2cc3c(cc2s1)OCO3
8. CC(=O)Nc1ccc(NC(=O)CC2CCCC2)cc1
9. CC1(NC(=S)NCCCCCCNC(=S)NC2(C)CCS(=O)(=O)C2)CCS(=O)(=O)C1 (stereo not given)
10. CCCc1cc(=O)[nH]c(SCC(=O)NC(=O)NC2CCCC2)n1
11. O=C(CSc1nncn1-c1ccccn1)Nc1ccccc1Cl
12. Cc1ccc(OCC(=O)Nc2ccc(-c3nc4ncccc4o3)cc2)c(C)c1
13. COC(=O)c1cc(COc2cc(C)cc3oc(=O)c4c(c23)CCC4)c(C)o1
14. Cc1ccc(-c2cc3c(N=O)c4ccccc4c-3n[nH]2)cc1
15. Cc1cc(=O)c2cc(NC(=O)c3ccccc3Cl)ccc2[nH]1
16. O=c1c2ccccc2n(Cc2ccccc2F)c(=O)n1Cc1ccccc1F
17. CS(=O)(=O)N1CCN(c2ccc(C(=O)NC34CC5CC(CC(C5)C3)C4)cc2[N+](=O)[O-])CC1
18. CCOc1ccc(CCNC(=O)c2ccc(C)c(S(=O)(=O)N3CCOCC3)c2)cc1OCC
19. CCOC(=O)c1c(C)c(C(=O)NCCOC)c(C)n1CC
20. CCOCC(=O)N1CCCC(C(=O)OCC)C1 (stereo not given)

| Screen / compound no. | 7 | 8 | 9 | 10 | 11 | 12 | 13 | 14 | 15 | 16 | 17 | 18 | 19 | 20 |
| --- | --- | --- | --- | --- | --- | --- | --- | --- | --- | --- | --- | --- | --- | --- |
| SARS PLP yeast | -4% | -2% | 0% | 5% | -5% | 2% | 0% | -3% | 1% | -3% | 3% | · | 3% | -5% |
| Marburg entry inh | ? | 26%[46.1 µM] | 12%[46.1 µM] | ? | -3%[46.1 µM] | 16%[46.1 µM] | · | 13%[46.1 µM] | 7% | 0% | 13% | ? | 1% | -16% |
| Lassa entry inh | -5% | · | -13%[46.1 µM] | -8% | 3% | ? | · | 20% | -15% | -3% | ? | ? | 2% | 0% |
| StopGo reporter | -10% | 56%[activator] | 31%[activator] | ? | 11% | 2% | · | -12% | 18% | -12% | -14% | 22µM* | 16% | -11% |
| RE007 growth inh | -22% | -8% | 14% | 10% | 10% | 4% | · | 38% | -17% | 10% | 10% | 2% | -13% | 6% |
| NS1 inh | -19% | 4% | -5% | · | -6% | -3% | 11% | · | 11% | 10% | 9% | · | 2% | 5% |
| Cruzain inh noDet | · | · | · | · | · | 20% | 1% | · | · | 1% | 24% | · | -5% | -7% |
| Cruzain Triton | · | · | · | · | · | -16% | 1.8% | · | · | 1.7% | -5.8% | · | 2.2% | -0.6% |

21. COc1ccc(O[C@H]2C=C[C@@H](c3ccccc3)O[C@@H]2COC(=O)CC/C(C)=N/O[C@@H](C)c2cc(-c3c(C)cc(C)cc3C)no2)cc1
22. COc1cc2nc(C(C)(C)C)oc(=O)c2cc1OC
23. COc1ccc(C(=O)NCCc2nc3ccccc3[nH]2)cc1
24. Cc1ccc(CN2CC(C(=O)N(CC(C)C)c3c(N)n(Cc4ccccc4)c(=O)[nH]c3=O)CC2=O)cc1 (stereo not given)
25. Cc1ccc2cc(-c3noc(C(C)(C)C)n3)c(=O)[nH]c2c1
26. CCCC(=O)Nc1nc(-c2ccccc2)c(CC)s1
27. CC1=C(C(=O)OC(C)(C)C)C(c2ccc(Br)cc2)NC(=O)N1CCCC(=O)O (stereo not given)
28. COc1nc(Oc2ccc(=O)[nH]n2)nc(N2CCOCC2)n1
29. CN(C(=O)c1ccco1)c1nnc(-c2ccc(F)cc2)s1
30. CC1CC(C)CN(CCOc2ccc(Cl)cc2Cl)C1 (stereo not given)

| Screen / compound no. | 21 | 22 | 23 | 24 | 25 | 26 | 27 | 28 | 29 | 30 |
| --- | --- | --- | --- | --- | --- | --- | --- | --- | --- | --- |
| SARS PLP yeast | 30% | -1% | · | · | -7% | -1% | -10% | 7% | -5% | -4% |
| Marburg entry inh | 6% | 3% | · | 1% | 19% | ? | · | 16% | -11%[46.1 µM] | ? |
| Lassa entry inh | 3% | -10% | 11%[46.1 µM] | 1% | 12% | 3% | · | ? | -14% | ? |
| StopGo reporter | · | -10% | 3% | -3% | 26% | -2% | -7% | -3% | -21% | 0% |
| RE007 growth inh | · | 0% | · | -12% | 25% | -3% | 14% | -14% | 1% | -10% |
| NS1 inh | 14% | 9% | · | · | -7% | -32% | 10% | ? | -31% | -12% |
| Cruzain inh noDet | ? | · | -15% | · | 4% | · | · | 0% | · | -2% |
| Cruzain Triton | 1.4% | · | 13µM* | · | 0.3% | · | · | 1.3% | · | 0.9% |

31. Cc1ccc(S(=O)(=O)c2c(C)nn(C(C)(C)C)c2OC(=O)C2CCCC2)cc1
32. COc1ccc(-n2nnnc2SCC#CCO)cc1
33. N#Cc1cccc(NC(=O)CCNS(=O)(=O)c2ccc3[nH]c(=O)oc3c2)c1
34. Cc1ccccc1-n1c(=O)cc(N2CCN(Cc3ccccc3)CC2)[nH]c1=O
35. O=C(NCc1ccccc1Cl)c1ccc2c(O)c(S(=O)(=O)c3ccccc3)c(=O)[nH]c2c1
36. CCC(=O)NC(=S)Nc1ccc(Cl)cn1
37. CCc1ccc(NC(=S)NC(=O)c2c(-c3ccccc3Cl)noc2C)cc1
38. CCOC(=O)C1CCCN(c2c(NCC3CCCO3)c(=O)c2=O)C1 (stereo not given)
39. COC(=O)c1ccc(NC(=O)CSc2cn(CC(=O)N3CCCCCC3)c3ccccc23)cc1
40. COc1ccc(-c2nncnn2)cc1

| Screen / compound no. | 31 | 32 | 33 | 34 | 35 | 36 | 37 | 38 | 39 | 40 |
| --- | --- | --- | --- | --- | --- | --- | --- | --- | --- | --- |
| SARS PLP yeast | -16% | -2% | -2% | 2% | · | 12% | -4% | -3% | · | -122% |
| Marburg entry inh | ? | ? | · | · | · | ? | ? | · | · | 1% |
| Lassa entry inh | ? | ? | · | · | 16%[46.1 µM] | 18% | -23% | · | -18%[46.1 µM] | -20% |
| StopGo reporter | ? | -5% | -12% | -10% | -7% | 21% | -16% | 4% | -24% | 27% |
| RE007 growth inh | -6% | -2% | 9% | 4% | · | -9% | -4% | 5% | · | ? |
| NS1 inh | -55% | -12% | -10% | 5% | · | -3% | 9% | -4% | · | -33% |
| Cruzain inh noDet | 3% | -4% | · | -12% | -12% | -5% | · | 2% | ? | -19% |
| Cruzain Triton | -1.3% | 4.0% | · | -1.7% | -7.0% | 3.2% | · | 4.7% | -6.7% | -9.4% |

41. Cc1nc(N2CCCC2)c2c(C(=O)N3CCN(c4cccc(C)c4C)CC3)c(C)oc2n1
42. O=C(Nc1ccccc1)N1CCCc2ccccc21
43. O=C(O)C1CCC(CNS(=O)(=O)c2ccc(Cl)cc2)CC1 (stereo not given)
44. Cc1c(Br)cnn1C(C)C(=O)N1CCN(c2ccc(F)cc2)CC1 (stereo not given)
45. CSc1ccccc1NC(=O)CSCc1ccc(C)cc1
46. COc1cccc(Nc2nc(N)c([N+](=O)[O-])c(NCc3ccco3)n2)c1
47. Cc1ccc(C(=O)N2CCCCCC2)cc1Br
48. O=C(NCc1ccco1)c1ccc(Cn2c(=O)c3ccccc3n(Cc3ccc(Cl)cc3)c2=O)cc1

| Screen / compound no. | 41 | 42 | 43 | 44 | 45 | 46 | 47 | 48 |
| --- | --- | --- | --- | --- | --- | --- | --- | --- |
| SARS PLP yeast | · | 16% | 1% | -29% | -26% | -9% | 1% | -3% |
| Marburg entry inh | · | ? | 0%[46.1 µM] | 6% | ? | ? | ? | -24% |
| Lassa entry inh | 9%[46.1 µM] | 9% | 18%[46.1 µM] | -2% | ? | ? | -1% | -17% |
| StopGo reporter | -28% | -8% | 8% | ? | 2% | ? | 33%[activator] | -3% |
| RE007 growth inh | · | -17% | 6% | 1% | -18% | 10% | -22% | 14% |
| NS1 inh | · | -4% | -2% | · | -117% | 10% | -19% | 3% |
| Cruzain inh noDet | -1% | -4% | · | · | 1% | · | -9% | ? |
| Cruzain Triton | 9.5% | 0.6% | · | · | 2.9% | · | -1.6% | -2.0% |
